SARS PLpro yeast: SARS-CoV PLP inhibition in yeast; S. cerevisiae expressing SARS-CoV PLpro, growth rescue; control for the full effect not named in the record; Potency, µM (doses to about 32.9 µM), without a hit: top-dose activity, positive = growth rescue; 330,000 tested, 0.19% active; also: 0% is about no effect; nearly all actives have a fitted effect of over 55% in size; growth read by luminescence after 48 h
NS1 function inh: inhibitors of influenza NS1 protein function | S. cerevisiae slowed by influenza A NS1, growth recovery by OD600 | 270,000 tested, 0.4% active | Potency, µM (titrated, usually from 46.1 µM), for the others: at the top dose activity, positive = more growth; also: actives are rising curves; nearly all actives have a fitted effect of over 50% in size
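A cell-based growth assay was used: compounds that relieve NS1-induced slow growth of budding yeast raise OD600. Assay medium was yeast nitrogen base with ammonium sulphate and -URA supplement, pH 6.0, with 2% galactose.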
RE007 growth inh: less growth of the S. pombe RE007 Vpr strain. S. pombe RE007 Vpr strain, BacTiter-Glo ATP luminescence, 24 h; control for the full effect not named in the record. Potency, µM (top dose mostly 92.2 µM), for the others: at the top dose activity change, negative = less growth. 360,000 tested, 0.21% active; active = well fitted falling curve with a large enough effect; inconclusive = small, poorly fitted or top-dose-only effect; inactive = no such curve, though single readings can be large or run the other way;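 also: % is scaled to controls: 0 for no effect and ±100 for the full control effect; nearly all actives have a fitted effect of over 50% in size; the assay follows cell death caused by Vpr and the record does not say whether a fall means rescue or toxicity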
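Fission yeast strain RE007, carrying one chromosomally integrated HIV-1 vpr copy, was seeded at OD 0.01 in PMG+AL medium with 23 nL pinned compound. After 24 h at 30 °C and 99% humidity, viability was read by BacTiter-Glo luminescence.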
2A StopGo: lowers the luciferase signal of an FMDV 2A StopGo reporter; human cells with a luciferase reporter of 2A StopGo recoding; control for the full effect not named in the record; Potency, µM (series often up to 57.9 µM), inactives show at the top dose signal change, negative = less light; 410,000 tested, 1.2% active; AID 1159524; active = well fitted falling curve with a large enough effect; inconclusive = small, poorly fitted or top-dose-only effect; inactive = no such curve, though single readings can be large or run the other way; tested in HEK293T cells; also: % is scaled to controls: 0 for no effect and ±100 for the full control effect; nearly all actives have a fitted effect of over 45% in size; luciferase light after 4 h
Cruzain inh Det: cruzain (T. cruzi) inhibition with detergent. P25779. purified cruzain, Z-FR-AMC fluorescence, 0.01% Triton. Potency, µM, inactives show max response, negative = inhibition, actives largely listed as inhibitors. 200,000 tested, 0.43% active; active = well fitted curve in the direction sought with a large enough effect; inconclusive = small, poorly fitted or top-dose-only effect, or another doubt; inactive = no such curve, though single readings can be large; an effect the other way counts as inactive or inconclusive;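 also: plate controls were neutral wells for no effect and buffer without enzyme for full effect; nearly all actives have a fitted effect of over 40% in size; top concentration of the series not given in the record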
Target sequence (P25779 123-467 limits assumed): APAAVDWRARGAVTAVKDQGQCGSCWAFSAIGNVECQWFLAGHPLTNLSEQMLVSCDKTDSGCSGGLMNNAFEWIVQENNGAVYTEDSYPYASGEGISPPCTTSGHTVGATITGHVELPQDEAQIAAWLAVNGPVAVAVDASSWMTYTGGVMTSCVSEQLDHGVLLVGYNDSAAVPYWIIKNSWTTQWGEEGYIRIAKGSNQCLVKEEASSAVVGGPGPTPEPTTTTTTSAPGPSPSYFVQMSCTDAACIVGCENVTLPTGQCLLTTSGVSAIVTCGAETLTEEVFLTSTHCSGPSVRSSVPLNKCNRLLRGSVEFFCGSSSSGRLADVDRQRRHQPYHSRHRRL
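Sodium acetate buffer (100 mM, pH 5.5) containing 5 mM DTT and 0.01% Triton X-100 hosted 1.5 nM cruzain and test compound for 15 min at room temperature. Cleavage of 2 uM Z-FR-AMC was then tracked by fluorescence.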
MARV entry inh: blocks Marburg virus binding to or entry into cells; Marburg virus pseudotyped entry inhibition, cell reporter; control for the full effect not named in the record; about a third of the inactives were read at about 46 µM; Potency, µM (series often up to 37.8 µM), inactives show top-dose activity change, negative = inhibition, actives largely listed as inhibitors; 300,000 tested, 1.8% active; AID 540276; active = well fitted inhibition curve with a large enough effect; inconclusive = small, poorly fitted or top-dose-only effect, or effect the other way; inactive = flat fitted curve, though single readings scatter; tested in HEK293 cells; about a fifth of its hits are not listed in these tables; also: % is scaled to controls: 0 for no effect and ±100 for the full control effect; luciferase read-out
Cruzain noTriton: cruzain (T. cruzi) inhibition without detergent. P25779. purified cruzain, Z-FR-AMC fluorescence, no detergent. Potency, µM, for inactives: max response, negative = inhibition, usual class: inhibitors. 200,000 tested, 2.3% active; active = well fitted curve in the direction sought with a large enough effect; inconclusive = small, poorly fitted or top-dose-only effect, or another doubt; inactive = no such curve, though single readings can be large; an effect the other way counts as inactive or inconclusive;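 also: plate controls were enzyme without inhibitor for no effect and buffer without enzyme for full effect; nearly all actives have a fitted effect of over 40% in size; top concentration of the series not given in the record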
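Detergent-free condition (0.00005% Triton X-100) in acetate buffer pH 5.5 with DTT. 1.5 nM enzyme and compound were pre-mixed 15 min, then 2 uM Z-FR-AMC substrate added; reaction progress from fluorescence change between first and third reads (60 s).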
LASV entry inh: blocks Lassa virus binding to or entry into cells; 300,000 tested, 1.2% active; Potency, µM (doses to about 37.9 µM), inactives show at the highest dose activity change, negative = inhibition, actives largely listed as inhibitors; Lassa virus pseudotype entry inhibition, cell reporter; control for the full effect not named in the record; active means well fitted inhibition curve with a large enough effect; inconclusive means small, poorly fitted or top-dose-only effect, or effect the other way; inactive means flat fitted curve, though single readings scatter; tested in HEK293 cells; also: % is scaled to controls: 0 for no effect and ±100 for the full control effect; nearly all actives have a fitted effect of over 50% in size; luciferase read-out
The depositor's hits bear a star; ? = inconclusive; . = not tested or not shown; & = joins results of further samples; [ ] = another dose, or the depositor's remark. Unless noted, calls follow the shape of the dose curve; as a rule, active means well fitted rising curve with a large enough effect; inconclusive means small, poorly fitted or top-dose-only effect; inactive means no such curve, though single readings can be large or run the other way. Potency is read from the fitted curve at half-maximal effect.

SMILES | SARS PLpro yeast | NS1 function inh | RE007 growth inh | 2A StopGo | Cruzain inh Det | MARV entry inh | Cruzain noTriton | LASV entry inh
CCC(C)NC(=O)C1CCN(S(=O)(=O)c2cccc3nonc23)CC1 (stereo not given) | 0% | 1% | 8% | -4% | . | -6%[46.1 µM] | . | 4%
CCN1CCc2nc3sc(C(=O)Nc4cccc(Cl)c4C)c(N)c3cc2C1 | . | . | . | 14µM* | -0.3% | ? | 27% | 4%[46.1 µM]
CC(=O)Nc1c(O)nc(SCc2ccccc2C#N)[nH]c1=O | -5% | -4% | -3% | 1% | -1.9% | -7% | -14% | 0%
COc1ccc2[nH]c3c(c2c1)CCN(C(=O)CCC1CCCC1)C3c1ccc(F)cc1 (stereo not given) | . | . | . | -11% | 7.0% | 0.63µM* | ? | ?
CCCn1c(C)cc(C(=O)COc2ccc(-c3nnco3)cc2)c1C | 0% | -3% | 7% | -21% | . | ? | . | 4%
O=C(C1CCCN(S(=O)(=O)Cc2ccccc2)C1)N1CCCCC1 (stereo not given) | 5% | 5% | -1% | -24% | 5.0% | -9% | -4% | 14%
Cc1nnc2c3ccccc3c(-c3ccc(O)cc3)nn12 | ? | 2% | 19% | 15% | 0.9% | 27% | -14% | -9%
O=C(NC1CCN(C(=S)Nc2ccc(Cl)cc2)CC1)c1ccco1 | 0% | 5% | -9% | 6% | . | 17%[46.1 µM] | . | -8%[46.1 µM]
CC(=O)Nc1ccc(S(=O)(=O)N/N=C/c2ccc(C)s2)cc1 | -16% | 13% | 2% | 207%[activator] | -4.8% | -1% | 11% | ?
O=C(COC(=O)/C=C/c1ccco1)NCCc1ccccc1 | -1% | . | 16% | 13% | . | 29% | . | -4%
O=C(CSc1ccc2ccccc2c1)N1CCN(c2ccc(O)cc2)CC1 | -3% | -9% | 11% | 7% | . | . | . | .
CC1CC(=O)N(CC(=O)Nc2ccccc2F)c2ccccc2S1(=O)=O (stereo not given) | -2% | 4% | 2% | 3% | . | . | . | .
O=C(Cn1cnc2ccccc2c1=O)OCCCCN1C(=O)c2ccccc2C1=O | 6% | -18% | 20% | ? | -1.2% | -3% | 6% | 9%
CC(=O)Nc1nonc1-c1nc2ccccc2n1CCC(C)C | 8% | 16% | -1% | -25% | -10% | ? | 6% | -5%
O=C(c1ccc(Oc2ccccc2)cc1)c1nc2c(n1O)CCCC2 | -41% | -35% | ? | 22% | -4.1% | -28% | -2% | ?
CCOc1ncccc1C(=O)OCC(=O)NCc1ccccc1 | 1% | . | -13% | -24% | . | 0%[46.1 µM] | . | 12%[46.1 µM]
O=C(NCc1n[nH]c(=S)n1-c1ccccc1)c1ccc(S(=O)(=O)N2CCOCC2)cc1 | 2% | -11% | 17% | 18% | 0.3% | 16% | -9% | 3%
CC(C)Nc1nc(Cl)nc(NN(C)c2nc(N(C)C)nc(N(C)C)n2)n1 | 8% | -13% | . | -10% | 2.8% | -11% | -4% | ?
CCn1c(COc2ccccc2)nnc1SCC(=O)Nc1cc(C)ccc1OC | -3% | -6% | 1% | -19% | -6.7% | ? | 21% | 26%
Cc1ccc(S(=O)(=O)CC(=O)Nc2nnc(C(C)(C)C)s2)cc1 | -1% | -19% | -2% | -7% | . | 0%[46.1 µM] | . | .
COc1cc(OC)cc(C(=O)N[C@H](C(=O)OCC(=O)Nc2ccc(C(C)C)cc2)C(C)C)c1 | 22% | 22% | -6% | 19% | -20% | -28%[46.1 µM] | 10% | 2%
Cn1c2ccccc2c2ncn(CCN3CCOCC3)c(=O)c21 | 17% | 1% | 3% | 21% | -5.8% | 7% | -20% | 17%
COC(=O)c1cccc(NC(=O)Cc2nc(-c3ccccc3)sc2-c2ccc(C)cc2)c1 | 7% | 29% | -12% | -8% | -3.6% | -11% | ? | -10%
COC(=O)c1cnn(-c2ccccc2)c1/C=N/NC(=S)Nc1ccccc1 | 0% | 0% | -15% | ? | . | . | . | .
COc1ccccc1N1CCN(C(=O)Cc2c(C(=O)O)c(C)cn2C)CC1 | . | . | . | -8% | 0.9% | . | 0% | 3%[46.1 µM]
Cc1cc(C(=O)N2CCN(C/C=C/c3ccccc3)CC2)no1 | 3% | 14% | -2% | -6% | 4.6% | 1% | 1% | 12%
Cc1ccsc1/C=N/NC(=O)C(=O)NCC(C)C | 0% | 2% | -19% | 86%[activator] | . | 6%[46.1 µM] | . | 6%
Cc1cc2cc(CNC(=O)c3ccc(S(=O)(=O)N(C)C)cc3)ccc2n1C | 3% | 11µM* | -9% | -8% | -6.7% | . | -23% | .
CCC1(c2ccccc2)NC(=O)N(CC(=O)NC2(C#N)CCCCC2)C1=O (stereo not given) | -9% | . | 4% | -13% | . | 13% | . | 12%
Cc1cc(Cl)ccc1OCCCC(=O)N1CCCc2ccccc21 | -25% | -4% | 3% | . | -2.0% | -13% | -2% | 1%
Cc1ccccc1NC(=O)c1cc2sccc2n1Cc1ccc(F)cc1 | . | . | . | 2% | -4.4% | ? | -27% | 3%[46.1 µM]
COc1ccc(NC(=O)C(=O)N/N=C\c2ccc(CNC(=O)C(=O)Nc3ccc(C)c(C)c3)o2)c(OC)c1 | 0% | 12% | -21% | 5% | . | ? | . | ?
Cc1ccc(OCC(=O)OCCN2C(=O)c3ccccc3C2=O)cc1C | -17% | -51% | -20% | -18% | -4.4% | ? | -15% | 1%
CCNc1nc(NCC)n2c(SCC(=O)Nc3ccc(OC(F)F)cc3)nnc2n1 | . | . | -11% | 5% | . | -1% | . | -5%
Oc1cccc2cccnc12 | -39% | -19%&-67% | . | -7% | 0.5%&-3.0%&-1.3%&0.6% | . | 2%&-3%&-4%&-2% | .
O=C(CCCn1c(=O)[nH]c2ccsc2c1=O)N1CCN(c2ccccn2)CC1 | 4% | -4% | -1% | -9% | -1.8% | ? | -1% | 1%
CCOc1ccccc1NC(=O)CCn1c(=O)oc2ccccc21 | 2% | -16% | 1% | 14% | 0.5% | -3% | -9% | 3%
CC(C)CCNC(=O)CCc1nnc2ccc(N3CCC(C)CC3)nn12 | 0% | 3% | -6% | -4% | . | . | . | .
COC(=O)c1ccc(Cn2c(SCc3cccc(C)c3)nc3ccncc32)cc1 | . | . | . | -15% | -8.9% | -28%[46.1 µM] | ? | .
CC(C)OC(=O)c1ccc(COc2ccc3ccc(=O)oc3c2)o1 | -2% | 3% | 23% | 41%[activator] | . | 4%[46.1 µM] | . | -5%
COc1cc(C(=O)Nc2ccc(C)cc2)c2ccccc2n1 | -4% | 3% | 3% | -5% | . | ? | . | ?
CCOC(=O)N1CCN(C(=O)c2cnn3c(C(F)F)cc(-c4ccc(C)cc4)nc23)CC1 | 5% | -37% | 10% | -5% | -22% | 2%[46.1 µM] | ? | -28%
COC(=O)c1nnn(-c2ccc(Cl)cc2)c1C(=O)OC | . | . | . | -17% | 7.5% | ? | 7% | 10%[46.1 µM]
CNC(=O)c1sc(NCc2ccccc2OC)nc1C | -4% | -3% | 8% | -5% | . | -5%[46.1 µM] | . | .
CCCCNC(=O)C1c2ccccc2Oc2ccccc21 | 0% | 4% | 0% | -20% | . | . | . | .
COc1cc(=O)n2c(-c3ccccc3)csc2n1 | -8% | -4% | -10% | 2% | -0.1% | -3%&-3% | 0% | 10%
CCOC(=O)N1CCC(=NNC(=O)COc2ccc(OC)cc2)CC1 | 6% | -1% | 5% | -27% | -2.2% | -16% | 2% | 0%
CCN(CC)c1ccc(S(=O)(=O)N(CC)CC)cc1NC(=O)c1cccnc1 | 0% | . | -15% | -8% | . | -7%[46.1 µM] | . | ?
N#CCCN1CCN(C(=S)c2ccc(-c3cccc(Cl)c3)o2)CC1 | -3% | -14% | 4% | 47%[activator] | -11% | -16% | ? | 26%
Cc1cc(-n2cccn2)ccc1CN1CCN(CC(C)C)C(CCO)C1 (stereo not given) | 1% | -25% | -10% | -23% | . | . | . | .
O=c1c2cccnc2n(Cc2ccc(Cl)cc2)c(=O)n1Cc1ccc(F)cc1 | . | . | . | -23% | 0.7% | ? | 0% | .
Cc1ccc(CNC(=O)C2CCN(S(=O)(=O)c3cccnc3)CC2)cc1 | 0% | -7% | 4% | -2% | . | . | . | .
Cc1cc2c(cc1C)NC(c1c(C)n(C)n(-c3ccccc3)c1=O)C1=C(CC(C)(C)CC1=O)N2 (stereo not given) | -4% | -79% | -7% | 27% | 0.5% | ? | -9% | -26%
CC1(C)Oc2ccc(NC(=O)c3ccco3)cc2O1 | -14% | -29% | -16% | 38%[activator] | 0.7% | -12% | -4% | ?
CCc1ccccc1N(CC(=O)NCCSCc1ccco1)S(C)(=O)=O | -1% | 6% | 9% | . | 1.8% | 17% | 5% | 1%
O=C(OCn1nnc2ccccc2c1=O)C1CCCCC1 | -9% | -15% | -5% | 9% | -4.7% | 13% | -9% | -10%
Cc1cc(OC(C)C(=O)NCCCN2CCOCC2)ccc1Cl (stereo not given) | -1% | 1% | -18% | 17% | . | 2% | . | -3%
CCCNC(=O)NC(=O)COC(=O)c1cccc(NS(=O)(=O)c2ccc(F)c(F)c2)c1 | -7% | 7% | -4% | 50%[activator] | -0.4% | 3% | 3% | -8%
COc1ccc(CCN2C(=O)CSC2c2ccc(F)cc2)cc1 (stereo not given) | 1% | -10% | -6% | ? | . | . | . | .
COc1ccc(C2=C(C(C)=O)Sc3nnc(-c4ccc(Cl)cc4)n3N2C(C)=O)cc1OC | . | . | . | -22% | -1.1% | . | 1% | ?

The list continues:
SMILES | SARS PLpro yeast | NS1 function inh | RE007 growth inh | 2A StopGo | Cruzain inh Det | MARV entry inh | Cruzain noTriton | LASV entry inh
CCN(c1ccccc1)c1nnc(NC(=O)Nc2ccccc2F)s1 | . | . | . | -1% | -3.4% | -17%[46.1 µM] | -11% | -9%[46.1 µM]
N#Cc1cccc2cnccc12 | 1% | 0% | -11% | -10% | 4.6% | 2% | 0% | ?
Cc1ccc(Oc2ccc(C(=O)NCc3ccncc3)cc2)cc1 | 3% | . | 24% | ? | . | ? | . | 8.9µM*
Cc1ccc(NCc2nnc(SCC(=O)O)n2-c2ccc(C)cc2)cc1 | 0% | 1% | -8% | 5% | . | 21%[46.1 µM] | . | 11%
